HNF4A DNA FP = change in binding of human HNF4A to DNA, primary screen, biochemical, fluorescence polarization, FITC-DNA. 1 h. AID 1224865, 2016. Hepatocyte nuclear factor 4-alpha (Homo sapiens), P41235. actives 0.3% (n = 360,000). activity change, % at 10 µM; in the data active = activity change above about 30%, passing the limit was not always enough;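 also: controls were the assay level and a saturating level of protein; the project sought stronger binding though the title names inhibitors; some compounds called inactive have numbers as strong as hits; positive values seem to mean higher polarization but the record does not say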
Target sequence (P41235 whole entry, looked up): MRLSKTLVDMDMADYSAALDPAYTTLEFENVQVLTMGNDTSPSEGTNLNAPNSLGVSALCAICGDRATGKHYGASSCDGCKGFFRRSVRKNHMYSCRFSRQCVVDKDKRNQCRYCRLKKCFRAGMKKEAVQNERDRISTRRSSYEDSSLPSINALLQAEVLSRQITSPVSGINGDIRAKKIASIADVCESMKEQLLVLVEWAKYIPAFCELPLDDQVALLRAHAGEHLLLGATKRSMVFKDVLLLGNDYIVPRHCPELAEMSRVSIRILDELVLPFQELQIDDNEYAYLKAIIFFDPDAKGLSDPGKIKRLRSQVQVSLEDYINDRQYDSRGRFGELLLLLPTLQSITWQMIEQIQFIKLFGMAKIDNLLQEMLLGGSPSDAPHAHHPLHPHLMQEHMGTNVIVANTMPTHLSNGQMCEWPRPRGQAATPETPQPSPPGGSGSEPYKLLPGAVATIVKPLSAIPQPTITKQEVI
B2AR ag = beta2AR agonists driving receptor internalization, primary screen, cell-based, FAP fluorogen, flow cytometry; Beta-2 adrenergic receptor (Homo sapiens), P07550; Am2.2-beta2AR cells; reference of the scale not given here; response, % (no concentration beside the values); actives 0.43% (n = 340,000);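 active = response above a set limit, near 3 SD of response in nonfluorescent compounds, cut at about 42% in these data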;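 also: stock transfer was 100 nL into about 11 µL; a reference agonist was the positive control; negative values mostly stem from fluorescent compounds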
Target sequence (P07550 whole entry, looked up): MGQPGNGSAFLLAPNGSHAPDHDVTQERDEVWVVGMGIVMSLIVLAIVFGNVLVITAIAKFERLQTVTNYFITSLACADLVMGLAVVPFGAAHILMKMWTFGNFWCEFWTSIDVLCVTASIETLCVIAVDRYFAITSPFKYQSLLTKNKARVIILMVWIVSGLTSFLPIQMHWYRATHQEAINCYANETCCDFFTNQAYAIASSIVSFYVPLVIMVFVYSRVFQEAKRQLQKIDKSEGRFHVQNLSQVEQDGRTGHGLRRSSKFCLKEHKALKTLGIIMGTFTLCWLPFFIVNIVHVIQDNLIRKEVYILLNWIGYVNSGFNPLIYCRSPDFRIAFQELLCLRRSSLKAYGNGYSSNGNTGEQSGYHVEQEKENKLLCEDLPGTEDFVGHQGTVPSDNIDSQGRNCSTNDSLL
* = called active by the depositor. An excerpt; the hit share may differ from the screen's.

Every second line gives: HNF4A DNA FP, B2AR ag
CCOc1ccc(NC(=O)CN(C)C(=O)c2cn(-c3ccc(C)cc3)nc2-c2cccc(OC)c2)cc1OCC
  -2.1, 6
COCCn1c(-c2ccc(C)cc2)nc2c(c(=O)c3ccccc3n2C)c1=O
  -2.9, -12
CN(CCc1ccccc1)C(=O)c1cccc(NC(=O)Cc2cccc(NC(=O)C3CCN(C(=O)C4CCCCC4)CC3)c2)c1
  -2.4, -16
COc1ccc(NC(=O)CCNS(=O)(=O)c2ccccc2F)cc1S(=O)(=O)N1CCOCC1
  -3.4, 2
O=C(CSc1nnc2ccc(-c3ccccn3)nn12)N1CCCC1
  -2.4, 0
COc1ccc(NC(=O)CCC(=O)N2CCC(c3ccccc3)=N2)cc1S(=O)(=O)N1CCCCC1
  3.6, 1
CC[C@]12C(=O)N(C)C[C@H]([C@@H]3C(=O)N(C)C(=O)[C@@H]31)N2C(=O)c1ccc(Cl)cc1
  -0.1, -6
O=S1(=O)c2ccc(Br)cc2N2CC[C@H](C2)N1Cc1ccc(Cl)cc1
  -1.3, -7
O=C(NCCCN1CCCC1=O)c1cc2ccccc2o1
  -2.1, 4
Cc1cccc(NC(=O)c2cccc([N+](=O)[O-])c2O)c1C
  -1.6, -1
COCCn1c(SCC(=O)NCC(c2ccccc2)N(C)C)nc2sc3c(c2c1=O)CCC3 (stereo unspecified)
  -1.4, -5
C[C@@H](NS(=O)(=O)c1cc(Cl)ccc1F)[C@H](O)c1ccccc1
  0.1, -2
O=[N+]([O-])c1ccc(N/N=C/c2sc(N3CCOCC3)nc2-c2ccccc2)c(S(=O)(=O)Nc2ccccc2Cl)c1
  60*, -295
Cc1cccc(C(=O)NNC(=O)c2n[nH]c(=O)c3ccccc23)c1C
  -2.2, 2
CCN(C(=O)COC(=O)c1c2c(nc3ccccc13)CCC2)c1c(N)n(Cc2ccccc2)c(=O)[nH]c1=O
  0.3, -7
CS(=O)(=O)c1ccc(Cl)c(NC(=O)COC(=O)CCN2C(=O)C3CC=CCC3C2=O)c1 (stereo unspecified)
  2.4, -2
COc1ccc(CCNC(=O)C2CCN(Cc3nc(-c4ccc(Cl)cc4)oc3C)CC2)cc1OC
  3.4, -4
COCCCNC(=O)C[C@H]1C[C@H](C(=O)N2CCOCC2)[C@@]2(CCC3CCCC3)c3[nH]c4cc(CCC(=O)N(C)C)ccc4c3CCN2C1=O
  0.2, 1
COP(=O)(OC)c1ccc(NCc2cc(O)ccc2O)cc1
  -4.7, -5
Cc1ccc(CN2CC(C(=O)N(CC(C)C)c3c(N)n(Cc4ccccc4)c(=O)[nH]c3=O)CC2=O)cc1 (stereo unspecified)
  -0.7, 2
CC1CCN(S(=O)(=O)c2ccc(NC(=O)C3CCCCC3C(=O)O)cc2)CC1 (stereo unspecified)
  -1.1, 4
CCN(C(=O)COC(=O)c1ncc(Cl)c(Cl)c1Cl)c1c(N)n(Cc2ccccc2)c(=O)[nH]c1=O
  -2.1, -4
Cc1cccc(C)c1OCC(N)C(C)C (stereo unspecified)
  3.5, 7
Cc1ccc(NC(=O)COC(=O)c2ccc(OC(F)F)cc2)cc1S(=O)(=O)N1CCCCC1
  -2.6, 5
CC[C@]12c3[nH]c4cc(-c5ccco5)ccc4c3CCN1C(=O)[C@@H](CC(=O)NCCN1CCOCC1)C[C@@H]2C(=O)N1CCN(C(=O)c2ccco2)CC1
  0.7, -4
CC[C@]12c3[nH]c4ccc(OC)cc4c3CCN1C(=O)C(CC(=O)NCCCOC)C[C@@H]2C(=O)N1CCN(C(=O)C2CC2)CC1 (stereo partly specified)
  -0.7, 1
COc1cccc(NC(=O)CN(C)C(=O)c2cc(S(=O)(=O)Nc3ccccc3OC)ccc2C)c1
  5.4, -4
CN(C)C(CNC(=O)c1cc2ccccc2o1)c1ccccc1 (stereo unspecified)
  -1.3, -3
O=C1[C@H](Cc2ccccc2)NCCCC[C@@H](c2ccc(Cl)cc2)N1Cc1ccccc1
  0.7, 16
CCOC(=O)CC1=NN(c2ccccc2)C(=O)C1=c1sc(=C2SC(C)=C(C)N2CC)c(=O)n1CC
  -0.1, -14

Record cards, as listed above.
`CC[C@]12c3[nH]c4cc(-c5ccco5)ccc4c3CCN1C(=O)[C@@H](CC(=O)NCCN1CCOCC1)C[C@@H]2C(=O)N1CCN(C(=O)c2ccco2)CC1` is listed as HNF4A DNA FP = 0.7; B2AR ag = -4
`COCCn1c(SCC(=O)NCC(c2ccccc2)N(C)C)nc2sc3c(c2c1=O)CCC3` (stereo unspecified) is listed as HNF4A DNA FP = -1.4; B2AR ag = -5

Back to the main list, repeating the six entries before the break.
Every second line gives: HNF4A DNA FP, B2AR ag
CC[C@]12c3[nH]c4cc(-c5ccco5)ccc4c3CCN1C(=O)[C@@H](CC(=O)NCCN1CCOCC1)C[C@@H]2C(=O)N1CCN(C(=O)c2ccco2)CC1
  0.7, -4
CC[C@]12c3[nH]c4ccc(OC)cc4c3CCN1C(=O)C(CC(=O)NCCCOC)C[C@@H]2C(=O)N1CCN(C(=O)C2CC2)CC1 (stereo partly specified)
  -0.7, 1
COc1cccc(NC(=O)CN(C)C(=O)c2cc(S(=O)(=O)Nc3ccccc3OC)ccc2C)c1
  5.4, -4
CN(C)C(CNC(=O)c1cc2ccccc2o1)c1ccccc1 (stereo unspecified)
  -1.3, -3
O=C1[C@H](Cc2ccccc2)NCCCC[C@@H](c2ccc(Cl)cc2)N1Cc1ccccc1
  0.7, 16
CCOC(=O)CC1=NN(c2ccccc2)C(=O)C1=c1sc(=C2SC(C)=C(C)N2CC)c(=O)n1CC
  -0.1, -14
O=C(CN1C(=O)C2CC=CCC2C1=O)Nc1ccc(OC(F)(F)F)cc1 (stereo unspecified)
  -0.3, 3
COc1ccc(Cl)c(CNC[C@H]2O[C@@H](n3cnc(C(N)=O)n3)[C@H](O)[C@@H]2O)c1
  2.7, -5
CCOC(=O)N1CCC(NC(=O)C2CCN(Cc3nc(-c4ccc(CC)cc4)oc3C)CC2)CC1
  1.0, 15
CC[C@]12C(=O)N(C)C[C@H]([C@@H]3C(=O)N(Cc4ccccc4)C(=O)[C@@H]31)N2C(=O)c1ccc(C(C)(C)C)cc1
  4.4, 3
CCCCC(CC)C(=O)O (stereo unspecified)
  2.4, 3
CC(OC(=O)c1ccc2c(=O)n3c(nc2c1)CCC3)C(=O)Nc1ccc(C(N)=O)cc1 (stereo unspecified)
  -1.5, -2
CN(C)N(C(=O)c1cc(-c2cccs2)nn1-c1ccccc1)C1CCS(=O)(=O)C1 (stereo unspecified)
  1.2, 3
CCCCn1c2nc3ccccc3nc2c2c(=N)oc(C)nc21
  2.5, -17
NCCCNCCCCNCCCN
  -2.8, 0
O=c1oc(-c2ccc(O)c(O)c2)cc2cccc(O)c12
  -5.7, 2
Cc1cc2ncn(S(=O)(=O)c3ccc(S(N)(=O)=O)cc3)c2cc1C
  -1.0, 1
CN(C(=O)c1ccc(NC(=O)Cc2ccc(NC(=O)C3CCCN(C(=O)c4ccccc4)C3)cc2)cc1)C1CCCC1 (stereo unspecified)
  0.4, 6
COc1ccc(CC(=O)NCC(=O)N/N=C/c2ccco2)cc1
  3.3, 2
CCOc1ncccc1C(=O)Nc1cc(S(=O)(=O)N2CCCCC2)ccc1OC
  -4.1, 4
Cc1ccc(C(=O)N2CCC(C(=O)c3ccc(F)cc3)CC2)cc1
  4.5, 7
NC(=O)c1ncn([C@@H]2O[C@H](CNCc3cnc(N4CCOCC4)nc3)[C@@H](O)[C@H]2O)n1
  4.4, -2
Cc1noc(C)c1COc1ccccc1C(=O)N1CCN(S(=O)(=O)c2ccc(F)c(F)c2)CC1
  4.2, -6
Cc1cc(-c2nc3ncccc3o2)ccc1NC(=O)c1ccc([N+](=O)[O-])o1
  -4.5, 0
O=C(COC(=O)C1CCCCC1)NCCc1ccccc1
  1.1, -2
N/C(=N\OC(=O)COc1ccc(Cl)cc1Cl)c1ccncc1
  -2.5, -6
COc1cc2c(cc1CNC[C@H]1O[C@@H](n3cnc(C(N)=O)n3)[C@H](O)[C@@H]1O)OCO2
  -3.8, -1
COC(=O)c1ccc(C)cc1C1CN=NC12Cc1cc(C)ccc1C2=O (stereo unspecified)
  -4.3, -6
CC(=O)Nc1ccc(NC(=O)COC(=O)c2ccc(S(=O)(=O)N(C)c3ccccc3)cc2)cc1
  -1.0, 0
Cc1ccccc1S(=O)(=O)N1[C@@H](c2ccc(Br)cc2)C(C(=O)O)=CC[C@H]1c1ccc(Cl)cc1
  -0.8, 11
CCOc1ncccc1C(=O)OCC(=O)Nc1cc(S(=O)(=O)N2CCCCC2)ccc1Cl
  -1.9, 3
N#CCCN(C(=O)COC(=O)C1CCN(S(=O)(=O)c2ccccc2C(F)(F)F)CC1)c1ccccc1
  4.3, 3
COc1ccc(N2CCN(C(=O)COC(=O)CSc3ccccc3)CC2)cc1
  1.9, 0
O=C(COC(=O)C1CC(=O)N(Cc2ccco2)C1)Nc1ccccc1[N+](=O)[O-] (stereo unspecified)
  -1.1, 0
C[C@]1(O)CC(=O)C=C[C@H]1Nc1ccccc1
  -0.6, -4
CCN(CC)S(=O)(=O)c1ccc(N2CCOCC2)c(NC(=O)CSCc2c(C)noc2C)c1
  1.1, 8
CC(C)(C)OC(=O)N1CCN(Cc2ccc(F)c(B(O)O)c2)CC1
  -6.0, -1
C#CCNCCS(=O)(=O)N(Cc1ccc(Br)cc1)[C@@H](C)C(=O)O
  -0.8, -4
CC(OC(=O)CCNS(=O)(=O)c1ccccc1)C(=O)Nc1ccc(S(=O)(=O)N2CCCCC2)cc1 (stereo unspecified)
  -0.6, 2
Cc1c(/C(O)=C2\C(=O)C(=O)N(CCCN(C)C)C2c2ccco2)cnn1-c1ccccc1 (stereo unspecified)
  1.3, 4
CCCCCn1c(SCC(=O)c2ccccc2)nc2cc(C(=O)NCC3CCCO3)ccc2c1=O (stereo unspecified)
  1.4, -3
COCCCN(C(=O)c1ccc(-c2ccc(C(C)=O)cc2)o1)c1c(N)n(CC(C)C)c(=O)[nH]c1=O
  4.3, 1
CCCCC[C@@H]1C=C(C(=O)O)[C@H](c2ccc3c(c2)OCO3)N1S(=O)(=O)c1ccc(C)cc1
  -16, -2
Cc1ccc(OCCC(=O)OCC(=O)Nc2ccc(C)c(S(=O)(=O)N3CCOCC3)c2)cc1
  4.8, 2
CCC(C)C(N)C1=NC(C(=O)N[C@@H](CC(C)C)C(=O)N[C@H](CCC(=O)[O-])C(=O)N[C@H](C(=O)N[C@H]2CCCCNC(=O)[C@H](CC(N)=O)NC(=O)[C@@H](CC(=O)[O-])NC(=O)[C@H](Cc3cnc[nH]3)NC(=O)[C@@H](Cc3ccccc3)NC(=O)[C@H]([C@@H](C)CC)NC(=O)[C@@H](CCCN)NC2=O)[C@@H](C)CC)CS1.[Zn+2] (stereo partly specified)
  0.0, -1
CN(C)c1ccc(C(=O)Nc2cccc(S(=O)(=O)N3CCCC3)c2)cc1
  0.3, 8
Cc1ccc(S(=O)(=O)N(C)C)cc1NC(=O)COC(=O)c1ccc2ccccc2n1
  5.2, 1
CC(C)c1ccc(NC(=O)CN2C(=O)NC(Cc3c[nH]c4ccccc34)C2=O)cc1 (stereo unspecified)
  -21, 13
CC(=O)CC(=O)NC1CCc2ccccc21 (stereo unspecified)
  -4.4, -11
CC[C@H]1C(Nc2ccccc2)C[C@@H]2CCN3C(=O)CC[C@H]1[C@H]23 (stereo partly specified)
  1.4, -3
CN(C)S(=O)(=O)c1cccc(C(=O)Nc2cc(S(=O)(=O)N3CCOCC3)ccc2N2CCCC2)c1
  5.2, 15
O=[N+]([O-])c1cccc(COc2ccccc2CN2CCCCC2)c1
  -0.5, 5
CCN(C(=O)COC(=O)CCOc1ccc(C(C)(C)C)cc1)c1c(N)n(Cc2ccccc2)c(=O)[nH]c1=O
  3.1, 0
COc1cc(C(=O)N2CCN(c3cccc(C(F)(F)F)c3)CC2)ccc1OCC(=O)N1CCOCC1
  12, -6
CCCCN1CC(COCc2ccccc2)Oc2cccc(Oc3ccc(OC)cc3)c2S1(=O)=O (stereo unspecified)
  -0.5, 0
Cc1c(NS(=O)(=O)c2cccc(C(=O)NCc3ccco3)c2)c(=O)n(-c2ccccc2)n1C
  -15, 9
Cn1c(=O)c2c(c3ccccc31)OC(=O)CC2c1cccnc1 (stereo unspecified)
  0.1, 8
CC(Sc1nnc(N)s1)C(=O)Nc1ccc2c(c1)OCO2 (stereo unspecified)
  -0.4, 3
Cc1c(NS(=O)(=O)c2cccc(C(=O)NCc3cccc(Cl)c3)c2)c(=O)n(-c2ccccc2)n1C
  1.5, -3
CC[C@@H](C)[C@@H]1CN([C@@H](C)CN2CCC[C@H]2CN2C(N)=NC[C@H]2CC(C)C)C(=N)N1CCCC1CCCC1
  -0.9, -4
O=C(Nc1ccccc1Cl)O/N=C/c1ccc(F)cc1
  -0.7, -8
CCCCNCCS(=O)(=O)NCc1ccc(OC)cc1
  -4.0, -9
CCCCCCCCCCCCCCCC[N+](C)(C)Cc1ccc(F)cc1
  12, -10
CCOc1ccccc1OCCCC(=O)NNC(=O)c1cc(C)oc1C
  3.0, 4
C[C@@H]1CN([C@@H](C)CO)C(=O)c2cc(NS(C)(=O)=O)ccc2O[C@@H]1CN(C)Cc1ccc(C(F)(F)F)cc1
  1.5, -16
COc1cc(OC)c(OC)cc1/C=C/C(=O)OCC(=O)Nc1c(C)n(C)n(-c2ccccc2)c1=O
  -0.1, -1
CN1CCN(CCCNc2nc3ccccc3c3nc(-c4ccccc4)nn23)CC1
  -0.5, -1

Bioassay records from PubChem.
